Six1-Eya2 inh: blocks human Six1 binding to Eya2; 0.56% of 360,000 active; activity change, % (no concentration beside the values); AlphaScreen GST-Six1/His-Eya2 binding, biochemical; stronger effect = lower value; control for the full effect not named in the record; in the data active = activity change below about -65%; inconclusive = about -30% to -65%; inactive = above about -30%; note: % is set by controls: 0 for no effect and ±100 for the full control effect; compound concentration not given in the record
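Six1/Eya2 binding was read as AlphaScreen signal after compounds were pinned into GST-Six1 plus His-tagged Eya2 (5X stock 250/500 nM) in pH 8.0 Tris/NaCl/TCEP buffer, beads added, then incubated 1 h, 37 C, dark.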
TRPML1 ag: human mucolipin-1 channel agonism. Q9GZU1. TRPML1-expressing cells, Ca2+ dye fluorescence, FDSS; host cell line not named in the record; reference of the full effect not given here. activation, % (no concentration beside the values). 0.12% of 410,000 active. AID 624414; in the data active = activation above about 50%; inconclusive = about 30% to 50%; inactive = below about 30%; note: 0% is about no effect; the text of the record puts the active cut at 80%
Target sequence (Q9GZU1 whole entry, looked up): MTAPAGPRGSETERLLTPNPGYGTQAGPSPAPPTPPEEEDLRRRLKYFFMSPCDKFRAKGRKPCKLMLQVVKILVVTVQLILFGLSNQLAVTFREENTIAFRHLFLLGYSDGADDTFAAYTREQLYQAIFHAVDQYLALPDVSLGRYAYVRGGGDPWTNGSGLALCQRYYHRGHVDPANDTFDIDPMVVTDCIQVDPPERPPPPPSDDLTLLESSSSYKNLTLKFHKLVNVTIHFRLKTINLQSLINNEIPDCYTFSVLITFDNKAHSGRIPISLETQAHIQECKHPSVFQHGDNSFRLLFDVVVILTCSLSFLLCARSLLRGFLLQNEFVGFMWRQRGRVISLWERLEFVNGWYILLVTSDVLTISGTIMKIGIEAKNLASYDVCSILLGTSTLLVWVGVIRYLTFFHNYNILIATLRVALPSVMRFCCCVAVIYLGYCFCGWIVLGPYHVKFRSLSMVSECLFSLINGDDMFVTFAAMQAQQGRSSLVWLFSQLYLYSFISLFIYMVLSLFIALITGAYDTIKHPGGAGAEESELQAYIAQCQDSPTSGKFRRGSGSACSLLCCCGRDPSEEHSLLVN
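In this qHTS format, compounds were pin-transferred onto Ca8-dye-loaded TRPML1-DL cells induced with Tet overnight, and intracellular Ca2+ fluorescence was recorded kinetically for 110 s after a 10 s baseline. A subsequent 4uM final 54-4 (EC80) addition followed by a second 110 s read served as the antagonist phase.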
D2 ag: human D2 receptor agonism in beta-arrestin assay | P14416 | DiscoveRx PathHunter D2 beta-arrestin, luminescence, 90 min; 100% = 57 uM dopamine signal | activation, % (concentration not given with the values) | 0.084% of 360,000 active | AID 624465; in the data active = activation above about 40%; inconclusive = about 15% to 40%; inactive = below about 15%; note: compound concentration not given in the record; the text of the record calls up to 30% inactive
Target sequence (P14416 whole entry, looked up): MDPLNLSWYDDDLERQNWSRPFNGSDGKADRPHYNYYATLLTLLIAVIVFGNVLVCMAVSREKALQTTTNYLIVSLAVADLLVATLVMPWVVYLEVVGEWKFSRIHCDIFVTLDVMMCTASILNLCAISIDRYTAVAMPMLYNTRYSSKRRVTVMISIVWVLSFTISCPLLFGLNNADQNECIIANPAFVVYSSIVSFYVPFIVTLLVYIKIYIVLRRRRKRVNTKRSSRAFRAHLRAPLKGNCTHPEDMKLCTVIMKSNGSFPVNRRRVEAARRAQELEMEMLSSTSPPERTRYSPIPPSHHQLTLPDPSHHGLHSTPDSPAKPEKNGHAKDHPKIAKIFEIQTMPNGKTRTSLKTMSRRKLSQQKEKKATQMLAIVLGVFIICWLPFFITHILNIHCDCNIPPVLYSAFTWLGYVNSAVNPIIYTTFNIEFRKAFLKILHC
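DiscoveRx PathHunter D2 beta-arrestin cells (2,100/well) attached overnight, then compound-stimulated 90 min at 37 C in HBSS/10 mM HEPES/0.1% Tween-20 buffer; beta-galactosidase complementation read by luminescence after 1 h at ambient temperature. Dopamine 57 uM final (EC100) as control.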
PINK1 modulator: PINK1 expression modulation. PINK1 immunofluorescence, high-content cytometry, 24 h. Potency, µM (doses to about 76.6 µM), inactives show at the top dose activation (PINK1 increase), actives largely listed as activators. 0.2% of 410,000 active. AID 624263; active = well fitted activation curve with a large enough effect; inconclusive = small, poorly fitted or top-dose-only effect; inactive = flat fitted curve, though single readings scatter; cell line not stated here;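 note: potency is the fitted concentration of half-maximal effect; % of control where 0% means no effect; nearly all actives have a fitted effect of over 65% in size; a mitochondrial uncoupler was the plate control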
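Decision-based qHTS: stable cells, 24 h exposure to five compound concentrations, CCCP as control. Fixed cells stained for PINK1 plus nuclear, mitochondrial and cell markers, cytometer read.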
D2 PAM: potentiates the human D2 dopamine receptor allosterically | 0.23% of 360,000 active | potentiation, % (test concentration not listed) | AID 624464 | DiscoveRx D2 beta-arrestin cells, luminescence, 90 min; 100% = 57 uM dopamine signal; active = potentiation of 50% or more; inconclusive = 30% to 50%; inactive = 30% or less;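 note: compound concentration not given in the record; tested on top of an EC20 dose of dopamine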
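PathHunter beta-arrestin assay in DiscoveRx D2 cells. Compounds were added with an EC20 of dopamine (50 nM final) for 90 min at 37 deg C. Luminescence was read 1 h after detection reagent, with 57 uM dopamine as the EC100 control.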
CtBP-E1A inh: CtBP/E1A binding inhibition; 0.49% of 340,000 active; AlphaScreen GST-E1A/His-CtBP binding, 1536-well; stronger effect = lower value; control for the full effect not named in the record; activity change, % (concentration not given with the values); in the data active means activity change below about -65%; inconclusive means about -30% to -65%; inactive means above about -30%; note: % is set by controls: 0 for no effect and ±100 for the full control effect
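GST-E1A and His-tagged CtBP (125 nM each as 5X stock) were preincubated with pin-transferred compound for 2 h at 37 °C in the dark, then glutathione donor and nickel acceptor beads were added for 1 h before AlphaScreen reading.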
Starred values were filed as active, the others as inactive; ? = inconclusive; . = not tested or not shown; [ ] = another dose, or the depositor's remark.

SMILES	Six1-Eya2 inh	TRPML1 ag	D2 ag	PINK1 modulator	D2 PAM	CtBP-E1A inh
O=C1c2ccccc2C(c2nnnn2-c2ccc3c(c2)OCCO3)N1CCCn1ccnc1 (configuration not stated)	24.7	-0.7	.	1.4%	.	27.0
COc1cc2c(cc1NC(=O)/C=C/c1ccc([N+](=O)[O-])cc1)oc1ccccc12	9.7	-0.3	-1.2	-2.8%	-8.4	2.4
CCn1c(CC(=O)Nc2ccc(C)cc2)n[nH]c1=S	24.6	0.7	-23.3	1.4%	-3.2	0.0
Cc1ncc(CN2CCN(CCc3ccccc3)C(CCO)C2)s1 (configuration not stated)	5.2	-0.5	-2.5	0.5%	-22.9	6.1
COc1ccc(CNC(=O)COC(=O)c2ccccn2)cc1	-7.5	-1.3	-1.3	0.5%	-13.0	-0.5
Cc1cccc(C2c3[nH]c4ccccc4c3CCN2C(=O)c2cc3c([nH]c2=O)CCCC3)n1 (configuration not stated)	-6.9	0.9	6.1	-0.4%	10.5	.
C=CCN(C(=O)CNC(=O)c1ccco1)C(C(=O)NC1CCCC1)c1cccs1 (configuration not stated)	-3.3	-0.1	-4.4	0.5%	-1.8	1.6
COc1cc(/C=N\n2nnnc2N)ccc1OCc1ccc(F)cc1	-10.2	0.1	2.3	17.0%	-16.1	-1.5
O=C1c2ccccc2-c2c1nc1c([n+]2[O-])CCCC1	-4.9	-0.6	-12.9	-0.1%	-26.0	-1.6
CCCc1nc2ccc(NC(=O)NCCC(=O)OCC)cc2c(=O)n1Cc1cccc(Cl)c1	1.9	1.1	-0.3	-1.4%	3.1	-3.7

Another view of part of the listing above:
O=C1c2ccccc2C(c2nnnn2-c2ccc3c(c2)OCCO3)N1CCCn1ccnc1 (configuration not stated)
- Six1-Eya2 inh: 24.7
- TRPML1 ag: -0.7
- D2 ag: .
- PINK1 modulator: 1.4%
- D2 PAM: .
- CtBP-E1A inh: 27.0
COc1cc2c(cc1NC(=O)/C=C/c1ccc([N+](=O)[O-])cc1)oc1ccccc12
- Six1-Eya2 inh: 9.7
- TRPML1 ag: -0.3
- D2 ag: -1.2
- PINK1 modulator: -2.8%
- D2 PAM: -8.4
- CtBP-E1A inh: 2.4
CCn1c(CC(=O)Nc2ccc(C)cc2)n[nH]c1=S
- Six1-Eya2 inh: 24.6
- TRPML1 ag: 0.7
- D2 ag: -23.3
- PINK1 modulator: 1.4%
- D2 PAM: -3.2
- CtBP-E1A inh: 0.0
Cc1ncc(CN2CCN(CCc3ccccc3)C(CCO)C2)s1 (configuration not stated)
- Six1-Eya2 inh: 5.2
- TRPML1 ag: -0.5
- D2 ag: -2.5
- PINK1 modulator: 0.5%
- D2 PAM: -22.9
- CtBP-E1A inh: 6.1

New compounds follow.
SMILES	Six1-Eya2 inh	TRPML1 ag	D2 ag	PINK1 modulator	D2 PAM	CtBP-E1A inh
Cc1cccc(CCNC(=O)C2CCN(S(=O)(=O)c3cccc4cccnc34)CC2)c1	2.0	-1.2	2.9	-2.1%	-6.8	-1.5
CC(=O)NCCn1c(SCc2ccccc2F)nc2ccccc2c1=O	-1.6	0.5	-2.2	-0.2%[38.3 µM]	-4.8	-3.7
Cc1ccc(S(=O)(=O)NCCc2cc3ccc(C)c(C)c3[nH]c2=O)cc1	0.4	-0.2	-2.0	-1.7%	-2.9	-1.9
COc1ccc2nc(/C(C#N)=C\c3ccc(Oc4ccc([N+](=O)[O-])cn4)cc3)[nH]c2c1	-10.2	-0.1	6.1	11.2µM*	16.3	-3.3
O=C(CCc1ccc(S(=O)(=O)N2CCOCC2)cc1)Nc1ccc2ccccc2c1	-4.8	-1.2	2.5	-1.6%	16.7	-2.3
CCS(=O)(=O)N1Cc2ccccc2CC1C(=O)Nc1nnc(SCc2ccc(F)cc2)s1 (configuration not stated)	-13.8	-0.2	0.8	0.2%	0.7	-9.2
CCOc1ccc(NC(=S)Nc2ccccc2C2CC2)cc1	0.8	-0.1	-5.1	-0.7%	-12.2	-2.8
CCCN(CCC)CCCNc1ccc(C(=O)Nc2cccc(OC)c2)cc1[N+](=O)[O-]	-22.9	-0.9	-8.3	2.9%	-30.0	-11.3
CCC(=O)N1CCc2cc(S(=O)(=O)NCCC(=O)N3CCN(Cc4ccccc4)CC3)ccc21	3.0	1.1	0.5	-1.2%	-7.3	-1.1
O=C(NCCC1=CCCCC1)c1c(O)nc2ccccn2c1=O	1.5	0.4	-2.0	1.7%	-1.1	.
O=C(CCc1nc2cccnc2n1Cc1ccccc1)N1CCOCC1	5.5	0.1	0.7	-0.8%	-1.3	6.1
O=C(NCc1nnnn1-c1ccc(F)c(F)c1)c1ccc2ccccc2c1	5.9	0.7	-4.2	1.2%	2.8	-17.3
COC(=O)c1nn(-c2ccccc2)c(Sc2ccccc2)c1/C=N/O	-4.3	-0.8	0.6	-1.1%	13.2	0.9
CC(=O)N1CCN(S(=O)(=O)c2cccc(C(=O)NC3CCCc4ccccc43)c2)CC1 (configuration not stated)	-0.4	0.1	-0.6	2.5%	-9.8	8.9
CC(=O)Cc1nsc(Nc2ccc(C)cc2)n1	-11.7	-1.0	-1.6	-0.9%	-31.9	-0.7
Nc1ccc(-c2cc3ccccc3c(=O)o2)cc1	14.6	-1.4	-2.4	5.1%	-5.1	11.9
CCN1C(=O)N[C@@H](c2cccc(F)c2)C(C(C)=O)=C1C	9.1	0.7	-0.6	-0.6%	0.7	-22.3
COc1ccc(NC(=O)CSCCc2ccccn2)cc1OC	6.2	-0.8	1.5	3.3%	13.6	3.9
CCOC(=O)N1CCN(C(=O)C2CCC(CNS(=O)(=O)c3ccccc3)CC2)CC1 (configuration not stated)	3.0	-0.8	-1.0	0.8%	28.3	11.3
Nc1ccc(C(=O)OC2CCOC2=O)cc1[N+](=O)[O-] (configuration not stated)	5.0	-1.6	-7.8	1.8%	3.5	8.4
O=c1cc(CN2CCCCCC2)nc2sccn12	-4.4	-0.6	-0.7	4.0%	-4.2	-4.9
Cc1ccnc(NC(=O)c2ccoc2C)c1	1.9	-1.4	0.7	1.1%	-5.0	4.2
COc1ccc(CCCNC(=O)C2Cc3c(-c4ccc(NC(C)=O)cc4)ccnc3O2)cc1 (configuration not stated)	3.8	-0.6	-4.7	6.7%	-2.8	-4.9
CC(C)=CCN1CCN(Cc2c[nH]c3ccccc23)CC1CCO (configuration not stated)	1.6	0.0	-1.8	0.2%	-31.3	8.7
N#CC1=C(SCC(N)=O)NC2=C(C(=O)c3ccccc32)C1c1ccc(Cl)cc1 (configuration not stated)	-5.9	-0.7	-7.3	-2.4%	-17.3	-3.5
CN(C)C(=S)SCC(=O)NCc1ccc(F)cc1	4.2	0.6	1.6	0.2%	-8.7	3.7
CC1CCCC(C)N1CCCNC(=O)c1cc2c(=O)n(C)c3ccccc3c2n1C (configuration not stated)	-8.3	0.7	-1.0	-0.4%	-5.2	-2.1
COc1ccc(/C=N/NC(=O)c2ccc(N(C)S(=O)(=O)c3ccccc3)cc2)c(OC)c1	-1.5	0.2	-0.9	-0.2%	-7.1	.
CCn1ncc(/C=N\NC(=O)COc2ccccc2)c1C	-4.0	-0.4	-2.3	15.6%	-19.4	2.8
Cc1cccnc1NC(=O)CCc1c[nH]c2ccccc12	-11.7	-0.1	0.9	-1.1%	1.0	-1.5
Oc1ccccc1C1N=C(c2ccccc2)NC(c2ccccc2)=N1	-6.2	0.7	-0.3	0.9%	-14.2	-4.0
CC12CN3CCN(CC(C3)C1(O)CN1CCOCC1)C2 (configuration not stated)	12.2	-0.2	-0.4	-0.8%	3.8	2.6
COc1ccc([N+](=O)[O-])cc1NC(=O)CSc1nccc(C)n1	-6.3	0.4	-2.4	1.8%	-16.0	7.1
O=C(NCCc1c[nH]c2ccccc12)c1ccc(Cl)cc1	-2.7	1.6	4.1	-0.9%	-43.1	.
CN1CCN(C(=S)c2cn(CCOc3ccccc3)c3ccccc23)CC1	-6.3	0.3	0.1	-2.5%	-17.6	.
Cc1ccc(C(=O)OCC(=O)NNC(=O)c2cccs2)c(O)c1	7.5	0.0	-1.9	1.8%	1.3	0.1
C/C=C/c1ccc(Oc2nnnn2-c2ccc(C(=O)O)cc2)c(OC)c1	4.1	-0.6	-2.5	-2.5%[38.3 µM]	-2.9	2.4
C=CCOc1nc2c(c(=O)n(C)c(=O)n2C)n1Cc1c(Cl)cccc1Cl	1.9	-0.7	-0.6	0.4%	-4.5	13.8
c1ccc(-c2nnc3ccc(N4CCCC4)nn23)cc1	-13.7	-0.6	-2.7	4.0%	-6.4	-10.1
COC(CNC(=O)CCCn1nnnc1CN1CCOCC1)c1cccs1 (configuration not stated)	26.2	0.9	-5.9	0.0%	-6.6	11.6
CCN1CCCC1CNC(=O)c1ccc2c(c1)NC(=O)/C(=C\c1ccc(C)cc1)S2 (configuration not stated)	-8.2	0.5	1.1	-1.4%	-4.7	.
O=C(OCN1C(=O)C(=O)c2ccccc21)c1ccc(Cl)cc1	5.4	0.2	-12.5	1.1%	-9.4	0.8
COc1ccc(C2=NS(=O)(=O)N(C)C(C(=O)NCc3ccccn3)=C2)cc1OC	-4.7	0.4	-0.6	-0.3%	-4.0	4.8
Cc1ccc(S(=O)(=O)NC(=NC(Cc2ccccc2)C(=O)O)c2ccccc2)cc1 (configuration not stated)	0.3	0.2	-3.2	-1.4%	-6.4	-15.0
COCCC1CCCCN1C(=O)c1cc(COc2ccc(-n3cncn3)cc2)on1 (configuration not stated)	13.0	-0.1	1.5	-0.3%	1.2	-8.2
CCc1noc(C)c1C(=O)N1CCCC(C(=O)c2cc(F)ccc2OC)C1 (configuration not stated)	-2.9	0.8	-6.2	-1.4%	-3.8	.
O=C(COc1ccccc1)Nc1nc2cc3c(cc2s1)OCO3	3.0	0.3	-0.8	7.2%	-11.0	-5.6
CN(CCCC(=O)Nc1ccc(OC(F)F)cc1)S(=O)(=O)c1ccc(F)cc1	15.6	-0.5	-0.5	1.3%	-3.0	-5.1
O=C(NN=CC=Cc1ccccc1)C(O)C(O)C(=O)NN=CC=Cc1ccccc1 (configuration not stated)	4.1	0.3	2.3	-1.1%	11.9	-1.2
C[C@H]1CN=C(Nc2ccccc2)N1CCC1CCCC1	9.8	-0.2	-2.6	1.6%	-27.2	2.3

Next part
SMILES	Six1-Eya2 inh	TRPML1 ag	D2 ag	PINK1 modulator	D2 PAM	CtBP-E1A inh
CC1(C)CC(Nc2ccc(Nc3ccccc3)cc2)CC(C)(C)N1	?	0.4	?	0.6%	-21.3	.
Cn1c(CN2CCOCC2)nnc1SCC(=O)Nc1cc(Cl)ccc1Cl	13.4	1.0	-0.8	1.9%	-7.5	-8.3
CC1CN(Cc2ccco2)C(=S)N(c2ccccc2)C1=O (configuration not stated)	5.9	0.1	1.3	-0.3%	9.5	-5.1
CCOC(=O)c1ccc(Oc2nc(N(C)C)nc(N(C)C)n2)cc1	7.9	0.1	0.7	1.5%	-4.1	4.1
N#Cc1ccc(OCC(=O)Nc2cc(S(=O)(=O)N3CCOCC3)ccc2N2CCCC2)cc1	-1.2	1.7	7.8	-0.3%	-0.6	2.9
CCCc1nc2ccccc2c2nc(N)nn12	-2.8	0.5	-3.3	1.8%[38.3 µM]	-4.7	-6.3
Cn1c(SCC(=O)NCc2ccco2)nnc1-c1c[nH]c2ccccc12	12.9	-0.2	-7.3	2.1%	-6.1	0.3
CN1CCN(C(=O)c2cc3nc(-c4ccccc4)cc(C(F)(F)F)n3n2)CC1	3.2	-0.7	0.2	0.1%	-8.5	10.9
